A1 inh: inhibitors of the anti-apoptotic protein A1, read as caspase activation. MEF A1-2A-BIM cells, Caspase-Glo 3/7 luminescence, 3 h; percent of clofoctol response, vehicle zero. caspase activation, % (concentration not given with the values). 330,000 compounds, 0.066% hits. AID 2462;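 active = over half of replicate activation scores above 10%, or exactly half above 10 with the replicate mean above 10; inconclusive = replicate mean below 10 yet half the replicates above 10; inactive = over half of replicates below 10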;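 also: wells of about 30 µL received 50 nL stock; many hits fall short of the cut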
Calb FLC: C. albicans growth modulation with fluconazole. C. albicans CaCi-2 (fluconazole-resistant clinical isolate) + fluconazole, Alamar Blue growth, 48 h. growth inhibition, % (concentration not given with the values). 300,000 compounds, 0.57% hits. AID 1979;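 active = most replicates above 75%; inconclusive = exactly half above 75%; inactive = most below 75%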;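 also: all wells also contain fluconazole at 8 µg/ml as a sub-toxic cotreatment; 0% = median of DMSO wells and 100% = median of geldanamycin control wells; wells of about 8 µL received 7.5 nL stock; the first replicate is given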
RanGTP-Impb inh: inhibitors of RanGTP-importin-beta interaction, primary screen, biochemical, FRET, CFP-Ran, YFP-importin-beta, homogeneous; cell-free CFP-Ran/YFP-importin-beta FRET ratio; inhibition, % (no concentration beside the values); 300,000 compounds, 1.1% hits;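 active = most replicates above 15%; inconclusive = exactly half above 15%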;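 also: 0% = DMSO wells and 100% = Ran loaded with GDP instead of GTP; wells of about 40 µL received 100 nL stock; the first replicate is given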
Beta apoptosis: blocks beta cell apoptosis; INS-1E cytokine-induced death, ATP luminescence, 48 h; percent of positive-control rescue, neutral wells zero; protection from apoptosis, % (no concentration beside the values); 300,000 compounds, 0.8% hits; AID 435005;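 active = all replicates at 75% or more, or half of them and the mean; inconclusive = half reach 75% but not the mean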;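 also: 0% = cytokine-treated negative control wells and 100% = positive control rescue; higher means more ATP so stronger rescue from cytokine killing; wells of about 40 µL received 100 nL stock; the first replicate is given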
UCH37 inh: inhibitors of human deubiquitinating enzyme UCH37; inhibition, % (test concentration not listed); Q9Y5K5; AID 588478; 330,000 compounds, 0.33% hits; purified proteasome/UCH37, Ub-AMC cleavage fluorescence;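 active = mean of two replicates above 20%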;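 also: 0% = compound-free wells with enzyme and 100% = wells lacking proteasome; stock transfer was 100 nL into about 20 µL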
Target sequence (Q9Y5K5 whole entry, looked up): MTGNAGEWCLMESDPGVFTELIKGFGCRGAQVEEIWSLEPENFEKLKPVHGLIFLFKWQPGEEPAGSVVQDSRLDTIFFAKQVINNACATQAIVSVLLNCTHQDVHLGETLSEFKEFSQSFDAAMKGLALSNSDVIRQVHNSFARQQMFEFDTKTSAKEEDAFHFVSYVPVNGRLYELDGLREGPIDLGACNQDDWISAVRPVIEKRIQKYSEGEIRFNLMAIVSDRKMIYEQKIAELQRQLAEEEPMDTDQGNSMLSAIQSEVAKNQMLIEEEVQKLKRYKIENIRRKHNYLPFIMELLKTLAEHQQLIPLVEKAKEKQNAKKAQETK
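Test system – human UCH37 enzyme supplied as purified proteasome complex · Incubation – 30 min preincubation with enzyme, 25 min cleavage at room temperature · Detection – AMC fluorescence from Ub-AMC cleavage, excitation 355 nm, emission 460 nm · Benchmarks – no-proteasome wells (full inhibition) and compound-free wells (no inhibition)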
T cruzi repl: blocks replication of Trypanosoma cruzi; T. cruzi beta-gal in NIH3T3, luminescence, 90 h; inhibition, % (test concentration not listed); 300,000 compounds, 1.4% hits; AID 1885;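 active = mean inhibition across valid replicates above about 55%, limit read from the data; inconclusive = mean below that limit but half or more replicates reach it; inactive = mean below it, under half of replicates reach it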;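 also: signal also drops with host cell toxicity which is not excluded here; 0% = plate median of DMSO wells and 100% = zero luminescence signal; higher percent means less beta-gal luminescence so fewer parasites; stock transfer was 50 nL into about 50 µL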
LANA-H2B inh: blocks KSHV LANA binding to histone H2A/H2B | Q9QR71 | cell-free LANA-H2A/H2B peptide, fluorescence polarization | inhibition, % (test concentration not listed) | 320,000 compounds, 0.6% hits; in the data active = inhibition mostly above about 10%, no sharp cut-off; inactive = mostly below about 6.7%;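 also: stock transfer was 7.5 nL into about 10 µL; 0% = median of vehicle wells and 100% = median of positive control wells; one replicate is shown; the record names a cut of 25% in any replicate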
Beta2AR agonist: agonists of human beta-2 adrenergic receptor inducing internalization | Am2.2-beta2AR cells, FAP receptor internalization, flow cytometry; reference of the scale not given here | response, % (concentration not given with the values) | 340,000 compounds, 0.43% hits | AID 504454;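 active = response above a set limit, near 3 SD of response in nonfluorescent compounds, cut at about 42% in these data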;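 also: stock transfer was 100 nL into about 11 µL; a reference agonist was the positive control; negative values mostly stem from fluorescent compounds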
Target sequence (P07550 whole entry, looked up): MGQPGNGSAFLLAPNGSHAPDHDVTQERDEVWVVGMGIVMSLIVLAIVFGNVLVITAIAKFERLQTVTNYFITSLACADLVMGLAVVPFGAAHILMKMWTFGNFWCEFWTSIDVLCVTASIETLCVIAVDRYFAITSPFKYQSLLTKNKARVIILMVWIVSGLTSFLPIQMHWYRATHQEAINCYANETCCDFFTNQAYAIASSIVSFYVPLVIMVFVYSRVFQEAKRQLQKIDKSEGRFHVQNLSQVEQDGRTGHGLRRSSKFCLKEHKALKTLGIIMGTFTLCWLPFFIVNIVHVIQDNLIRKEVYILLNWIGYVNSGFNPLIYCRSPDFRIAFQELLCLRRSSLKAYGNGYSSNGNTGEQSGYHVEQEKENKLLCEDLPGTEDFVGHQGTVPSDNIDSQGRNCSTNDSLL
* hit, by the source's call; u = inconclusive; x = no result given.

Every second line gives: A1 inh	Calb FLC	RanGTP-Impb inh	Beta apoptosis	UCH37 inh	T cruzi repl	LANA-H2B inh	Beta2AR agonist
COc1c(Cl)cnn(-c2ccccc2)c1=O
 : -0.4	4	4.4	5	2.7	-18	-0.9	-5
CCN(C(=O)Cc1cccs1)c1nnc(-c2cc(OC)c(OC)c(OC)c2)s1
 : -0.6	6	1.2	1	-6.9	18	2.0	-7
CN(C)S(=O)(=O)N1CCN(CC(=O)Nc2ccc(Br)cc2)CC1
 : 0.8	12	3.4	-3	5.7	-30	2.2	-4
Cc1ccn(C(=O)c2ccc(NC(=O)C3CCCCC3)cc2)n1
 : 3.1	0	-3.3	-6	2.3	-11	7.3	-3
CN(C)S(=O)(=O)c1cc(NC(=O)c2cc(=O)c3ccccc3o2)ccc1Cl
 : -0.3	-8	1.1	3	5.1	2	2.0	7
Cc1ccc(N2C(=O)C3C4C=CC(CNC(=S)Nc5ccc(F)cc5)(O4)C3C2=O)cc1 (stereo unspecified)
 : 0.5	-14	-2.8	1	-2.2	-12	0.9	-1
CN(c1ccc(Br)cc1)S(=O)(=O)c1ccc2[nH]cc(C(=O)NCCN3CCOCC3)c(=O)c2c1
 : -0.2	-8	-0.1	-1	2.9	7	6.9	1
COc1ccc(NC(C)=O)cc1S(=O)(=O)Nc1ccccc1C(=O)NCCc1ccccc1
 : 0.4	2	0.5	1	-5.1	6	-0.1	0
COc1ccc(C)cc1-n1nnnc1SCc1nc2ccccc2c(=O)[nH]1
 : -0.2	-5	-0.7	-3	2.3	1	-5.7	-3
CCNC(=O)CN(CCc1ccccc1)S(=O)(=O)c1ccc(OC)cc1
 : -0.2	1	0.3	x	1.0	-5	9.0	0
CCCCNC(=O)NNC(=O)c1ccoc1C
 : -1.2	0	4.4	-1	5.1	x	-6.4	2
CCOC(=O)CCCSc1nc2sc3c(c2c(=O)[nH]1)CCC3
 : -0.1	44	u	-3	0.5	-9	-1.0	4
COc1ccccc1CNC(=O)CSc1ncc(C(=O)Nc2ccccc2)c(=O)n1C
 : -6.4	0	u	-5	-37	-16	-0.9	6
O=c1[nH]cnc2c1sc1nc3c(c(-c4ccc(Cl)cc4)c12)CCC3
 : -0.2	2	-1.3	x	0.4	-7	-2.2	0
Cc1ccc(N(Cc2ccco2)C(=O)c2cccc(S(=O)(=O)N(C)C)c2)cc1
 : -0.5	-5	-2.4	-1	1.1	24	-2.7	-11
O=S(=O)(NCc1ccc(F)cc1)c1cc(Br)ccc1Br
 : -1.7	x	x	-5	1.6	x	-0.7	-12
Cc1ccc(F)cc1NCC(=O)Nc1ccc(Cl)cc1F
 : 0.1	-15	-2.2	x	1.1	-27	-0.3	-1
CSc1nc(N)nc(-c2cccs2)c1C#N
 : -0.3	-14	-2.4	-2	-2.9	-5	-4.9	5
COc1ccc(NC(=O)Cn2c(=O)n(CC(=O)NCc3ccco3)c(=O)c3ccccc32)cc1
 : 0.3	-4	-1.3	-1	2.1	2	1.3	7
O=C(CSc1nc2ccccc2[nH]1)N1CCCCC1
 : 0.1	1	-3.3	5	4.6	4	-4.8	-7
O=C(COc1ccc(Br)cc1)Nc1cc(S(=O)(=O)N2CCCCC2)ccc1N1CCCCC1
 : 0.2	-6	-3.0	-4	0.2	-12	x	-11
CC(NC(=S)NNS(=O)(=O)c1ccc(C(C)(C)C)cc1)c1ccccc1 (stereo unspecified)
 : 0.3	8	1.2	-8	7.6	11	3.0	11
CCCN(CCC)C(=O)CC(c1ccccc1)c1ccco1 (stereo unspecified)
 : 0.3	-2	0.5	-3	4.8	8	-11	0
Cc1ccccc1OCC(O)CN1CCN(CCN2C(=O)c3cccc4cccc(c34)C2=O)CC1 (stereo unspecified)
 : 0.4	41	11	10	4.0	56*	-2.4	-11
Cc1c(CCC(=O)O)c(=O)oc2cc3occ(-c4ccc(F)cc4)c3cc12
 : 0.2	-6	0.8	9	-6.8	8	3.9	-8
COc1cc(C(=O)NCc2cn3cccc(C)c3n2)cc(OC)c1OC
 : 1.1	-5	4.2	6	2.9	-13	1.9	3
Cc1ccc(Oc2nn[nH]n2)cc1
 : -0.7	-7	0.5	-3	1.4	-13	-0.5	10
O=C(CSCc1ccc(Cl)c(Cl)c1)Nc1c[nH]c(=O)[nH]c1=O
 : 0.9	-5	-16	2	3.2	-10	0.6	5
Cc1cc(C)nc(SC(C)CNS(=O)(=O)c2ccccc2)n1 (stereo unspecified)
 : 0.1	3	2.2	-6	4.5	-8	0.3	-10
Cc1cccc(C(=O)NC2CC3CCCC(C2)N3Cc2ccccc2)c1 (stereo unspecified)
 : 0.0	-8	-2.3	-2	2.5	13	7.5	1
CCn1c(=O)c(CCC(=O)NCCN2CCOCC2)c(C)c2c(C)nn(-c3cccc(C)c3)c21
 : 0.8	45	3.5	2	-1.7	11	2.7	1
COc1ccc(NC(=O)CSc2nc3c(c(=O)n2-c2ccccc2OC)SCC3)cc1
 : 0.7	-1	10.0	-2	3.2	9	1.9	8
Cc1ccc(N2C(=O)c3ccccc3C2Nc2ccc(S(=O)(=O)N3CCOCC3)cc2)nc1 (stereo unspecified)
 : 0.7	6	-2.8	4	5.3	7	-6.6	-16
COc1cccc(C(=O)Nc2ccc(N3CCN(S(C)(=O)=O)CC3)cc2)c1
 : 0.2	8	0.5	0	-3.3	-1	1.3	-8
O=S(=O)(Cc1ccccc1)Nc1ccc(S(=O)(=O)NCC2CCCO2)cc1 (stereo unspecified)
 : 0.3	0	-1.0	-8	2.7	-13	-3.0	1
CCOc1ccc(NC(=O)NCc2ccco2)cc1
 : 0.1	-7	5.6	3	2.3	-10	-1.9	8
O=C(COC(=O)c1cc([N+](=O)[O-])ccc1N1CCOCC1)Nc1ccccc1OC(F)F
 : 0.5	4	0.0	2	5.6	-8	-1.4	0
O=C(CN1C(=O)NC2(CCSC2)C1=O)N1CCN(c2ccc(F)cc2)CC1 (stereo unspecified)
 : -0.5	7	-1.5	-1	5.0	-17	0.9	4
COc1ccc(C2=NS(=O)(=O)N(C)C(C(=O)NC3CCCCC3)=C2)cc1
 : 0.1	6	u	1	3.9	5	0.1	-11
COc1cc(NC(=O)c2cc(C)no2)cc(OC)c1OC
 : -0.8	6	-3.2	x	3.7	0	8.4	-5
CCN1CCN(C2=C(NS(=O)(=O)c3ccc(Br)cc3)C(=O)c3ccccc3C2=O)CC1
 : 0.1	-2	-0.3	66	13	23	-0.7	-3
NC(=O)CC1SC(N)=NC1=O (stereo unspecified)
 : 1.0	-2	-6.0	-4	0.0	2	-1.6	-3
Nc1cc(OC(=O)c2cccs2)nn1S(=O)(=O)c1ccccc1
 : -0.2	6	-1.5	-4	5.2	0	0.3	11
COc1ccc(/C=C2\Oc3cc(OCC(=O)N4CC(O)C[C@H]4C(=O)O)ccc3C2=O)c(OC)c1OC (stereo partly specified)
 : -0.4	-3	-0.3	-1	15	-4	4.3	-2
O=C(CSc1nnc(C2CC2)n1CC1CCCO1)Nc1ccc(Cl)cc1 (stereo unspecified)
 : -0.5	1	-7.4	-3	1.1	3	2.1	-8
COc1ccc(C(=O)NCC(=O)NCc2ccncc2)cc1
 : -0.5	x	x	-5	1.2	x	-2.4	-4
CC(=O)Nc1ccc(N(CC(O)Cn2c3ccccc3c3ccccc32)S(=O)(=O)c2ccc(C)cc2)cc1 (stereo unspecified)
 : -0.4	1	-1.1	-2	1.7	28	-14	9
CC(CCl)OC(C)CCl (stereo unspecified)
 : 0.3	x	x	-6	0.1	x	-0.3	1
Cc1nnsc1NC(=O)OCc1ccc(C(C)(C)C)cc1
 : 0.0	-8	-0.5	19	-2.4	12	-12	0
COC(=O)c1ccc(C2/C(=C(\O)c3ccc4c(c3)OCCO4)C(=O)C(=O)N2c2nnc(C)s2)cc1 (stereo unspecified)
 : -0.6	x	-1.1	-6	14	-7	-1.2	9
Cc1ccc(NC(=O)c2c3c(nc4ccccc24)CCC3)cc1S(=O)(=O)N(C)C
 : -0.7	-5	0.5	2	6.7	-4	-5.3	5
O=C(N=NC(=O)c1ccco1)c1ccc2c(O)n(N3C(=O)c4ccccc4C3=O)c(O)c2c1
 : 0.2	-6	-4.9	-5	6.6	-22	0.5	0
Cc1ccc(C)c(-c2nnc(OCC(=O)Nc3cc(C)on3)c3ccccc23)c1
 : -0.1	-4	u	-8	2.9	6	-15	-2
COCc1cc(/C=N\NC(=O)c2ccc(Cl)cc2)ccc1OC
 : -0.1	1	0.0	-3	x	-13	1.0	-2
C=CCN(C(=O)OC(C)(C)C)S(=O)(=O)NCc1ccccc1
 : 0.0	x	x	-6	3.4	x	1.6	-2
CCOc1ccccc1NC(=O)C1CCCN(S(=O)(=O)c2cccc3nsnc23)C1 (stereo unspecified)
 : 0.7	-38	7.2	-1	0.2	4	-2.6	12
O=C(COc1nncc2ccccc12)Nc1ccc(Br)cc1F
 : -0.4	-1	-0.8	-10	-0.8	2	-0.1	-1
Cn1cc(S(=O)(=O)Nc2ccc(Oc3ccccc3)cc2)c(=O)n(C)c1=O
 : -0.2	3	0.3	1	1.5	-4	0.0	-17
O=C(Cn1cc(/C=C\[N+](=O)[O-])c2ccccc21)Nc1ccccc1
 : -0.2	-8	-2.5	-5	2.4	20	-1.5	84*
Cc1nc2cc(CO)ccc2s1
 : 0.2	-4	-0.8	-7	-2.3	-10	3.7	-9

Further structures
Every second line gives: A1 inh	Calb FLC	RanGTP-Impb inh	Beta apoptosis	UCH37 inh	T cruzi repl	LANA-H2B inh	Beta2AR agonist
Cc1ccc2cccc(S(=O)(=O)Nc3c(C)n(C)n(-c4ccccc4)c3=O)c2n1
 : 0.7	-5	1.9	-12	0.4	-5	1.7	-7
CCOC(=O)N1CCN(c2ccc(N3C(=O)CCCC3=O)cc2[N+](=O)[O-])CC1
 : 0.0	-9	2.8	-6	4.8	-2	4.3	5
O=C1C2=C(C(c3ccccc3)=NCCN2)C(c2cccc([N+](=O)[O-])c2)N1c1ccccc1 (stereo unspecified)
 : 0.6	-5	-1.4	1	2.2	4	1.3	-5
CS(=O)(=O)Cc1cccc(C(=O)NC2CCSc3ccccc32)c1 (stereo unspecified)
 : 0.0	-5	u	6	-0.3	11	2.4	-1
Cc1cccc(-c2oc(C)c(C)[n+]2[O-])c1
 : 0.7	-12	-2.9	-12	2.0	-5	-1.9	6
COc1ccc(CC(NC(C)=O)C(=O)NC2CCN(C(=O)c3ccc(Cl)cc3)CC2)cc1 (stereo unspecified)
 : x	8	2.2	x	0.7	4	x	4
Cc1ccc(S(=O)(=O)N2CCN(c3nccnc3C#N)CC2)cc1
 : -0.4	-21	7.9	-6	-6.3	-1	-3.0	11
CCN(c1ccc(NC(=O)COC(=O)c2cccs2)cc1)C(C)C
 : 0.3	-9	1.9	4	0.7	-12	-2.7	-4
C=CCN1C(=O)C(Cc2cccc(Cl)c2)SC1=Nc1ccc(C(=O)O)cc1 (stereo unspecified)
 : 0.4	4	-6.2	-10	2.2	7	3.7	-2

Rows were taken by chance; overall some 4.3% were active at least once.
